Screening results (PubChem)
gsp antagonist: gsp mutant antagonism; 0.4% of 340,000 active; AID 624288; gsp-mutant cells, cAMP HTRF, 30 min; control for the full effect not named in the record; Potency, µM (titrated, usually from 76.9 µM), without a hit: at the highest dose activity change, negative = inhibition, usual class: inhibitors; active = falling curve of any shape with a large fitted effect; inconclusive = falling curve, mostly with a smaller effect; inactive = flat or rising curve; cell line not stated here;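 also: intracellular cAMP measured with PDE inhibitor Ro 20-1724 present during compound exposure; potency is read from the fitted curve at half-maximal effect; % is scaled to controls: 0 for no effect and ±100 for the full control effect; nearly all actives have a fitted effect of over 65% in size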
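Measurement of cellular cAMP by homogeneous time-resolved fluorescence following a 30 min compound exposure at 37C. The PDE inhibitor […] was present throughout; the assay buffer was DPBS with 0.05% BSA and 0.005% Tween 20.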
gsp agonist: agonists of gsp mutant (McCune-Albright syndrome); Potency, µM (top dose mostly 76.9 µM), without a hit: at the highest dose activation (cAMP increase), most hits filed as activators; gsp mutant cells, cAMP HTRF, 30 min; control for the full effect not named in the record; AID 624287; 0.13% of 340,000 active; active = well fitted activation curve with a large enough effect; inconclusive = small, poorly fitted or top-dose-only effect, or another doubt; inactive = no such curve, though single readings can be large or run the other way; cell line not stated here;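 also: phosphodiesterase inhibitor Ro 20-1724 added with compounds to block cAMP breakdown; potency is read from the fitted curve at half-maximal effect; nearly all actives have a fitted effect of over 60% in size; about a fifth of the inactives were tested at one dose only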
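Cells stably selected in G418 were plated at 2000/well, grown 16-24 hr, then given compounds in DMSO with the PDE inhibitor […] (300 uM solution added) for 30 min at 37C; cAMP was read by HTRF.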
Menin-MLL FL inh: menin-MLL binding inhibition, fluorescein peptide; AID 1766; FP activity change, % at 61.4 µM; Fluorescence polarization, fluorescein-MLL peptide displacement from menin; 290,000 tested, under 10 active; inconclusive = falling polarisation curve, or a change in total fluorescence; inactive = total fluorescence flat and polarisation flat or rising; no compound was filed as active; the % refers to the polarisation; negative = inhibition;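 also: % of control where 0% means no effect; inhibitors lower the polarisation; unlabelled MLL peptide was the positive control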
ClpP mod: qHTS Assay for Activators of ClpP; ATP-dependent Clp protease proteolytic subunit (Bacillus subtilis (strain 168)), P80244; purified B. subtilis ClpP, FRET peptide cleavage, 20 min; Potency, µM (top dose mostly 57.5 µM), for inactives: at the top dose activity change, negative = active; 1.9% of 340,000 active; AID 651965, 2013; active = well fitted falling curve with a large enough effect; inconclusive = small, poorly fitted or top-dose-only effect; inactive = no such curve, though single readings can be large or run the other way; also: potency is read from the fitted curve at half-maximal effect; the source files actives as falling curves though it sought activators and does not explain the sign; nearly all actives have a fitted effect of over 65% in size; many hits overshoot -100%
Target sequence (P80244 whole entry, looked up): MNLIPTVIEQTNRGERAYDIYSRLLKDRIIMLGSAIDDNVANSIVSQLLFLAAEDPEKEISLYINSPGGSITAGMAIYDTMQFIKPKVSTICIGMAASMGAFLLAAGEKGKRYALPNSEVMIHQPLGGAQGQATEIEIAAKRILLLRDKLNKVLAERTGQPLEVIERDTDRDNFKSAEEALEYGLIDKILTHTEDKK
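ClpP 10 microg/mL final, pH 8 Tris/KCl buffer with BSA, glycerol, Tween-20; compound pinned in; FRET-FV substrate; RT 20 min; Ex320/Em430; ΔFRET vs ADEP 5.8 microM, DMSO, no enzyme.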
Sfp inh: Sfp phosphopantetheinyl transferase inhibition. Potency, µM, for the others: max response, negative = inhibition, hits mostly inhibitors. Biochemical Sfp PPTase activity, qHTS. 3.5% of 310,000 active; active = well fitted inhibition curve with a large enough effect; inconclusive = small, poorly fitted or top-dose-only effect, or another doubt; inactive = no such curve, though single readings can be large or run the other way;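 also: the enzyme is Sfp with the accession as filed and its product quenches rhodamine fluorescence; potency is read from the fitted curve at half-maximal effect; 0% = enzyme reaction without inhibitor and -100% = no enzyme wells; top concentration of the series not given in the record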
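Fluorescence-quenching assay: 15 nM Sfp-PPTase preincubated 15 min at room temperature with compound, then 5 uM rhodamine-CoA and 12.5 uM BHQ-2-labelled YbbR peptide added. Fluorescence (ex 525/em 598 nm) read at start and after 30 min; difference gives rate.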
TRPV1 potentiator: enhances activation of the human vanilloid receptor TRPV1 | TRPV1-expressing cells, Fluo-8 calcium influx, capsaicin EC20 potentiation; host cell line not named in the record; control for the full effect not named in the record | 0.02% of 320,000 active | potentiation, % at 8.33 µM | AID 540277; active means potentiation above 80%; inconclusive means 30% to 80%; inactive means below 30%; also: 0% is about no effect
Target sequence (Q8NER1 whole entry, looked up): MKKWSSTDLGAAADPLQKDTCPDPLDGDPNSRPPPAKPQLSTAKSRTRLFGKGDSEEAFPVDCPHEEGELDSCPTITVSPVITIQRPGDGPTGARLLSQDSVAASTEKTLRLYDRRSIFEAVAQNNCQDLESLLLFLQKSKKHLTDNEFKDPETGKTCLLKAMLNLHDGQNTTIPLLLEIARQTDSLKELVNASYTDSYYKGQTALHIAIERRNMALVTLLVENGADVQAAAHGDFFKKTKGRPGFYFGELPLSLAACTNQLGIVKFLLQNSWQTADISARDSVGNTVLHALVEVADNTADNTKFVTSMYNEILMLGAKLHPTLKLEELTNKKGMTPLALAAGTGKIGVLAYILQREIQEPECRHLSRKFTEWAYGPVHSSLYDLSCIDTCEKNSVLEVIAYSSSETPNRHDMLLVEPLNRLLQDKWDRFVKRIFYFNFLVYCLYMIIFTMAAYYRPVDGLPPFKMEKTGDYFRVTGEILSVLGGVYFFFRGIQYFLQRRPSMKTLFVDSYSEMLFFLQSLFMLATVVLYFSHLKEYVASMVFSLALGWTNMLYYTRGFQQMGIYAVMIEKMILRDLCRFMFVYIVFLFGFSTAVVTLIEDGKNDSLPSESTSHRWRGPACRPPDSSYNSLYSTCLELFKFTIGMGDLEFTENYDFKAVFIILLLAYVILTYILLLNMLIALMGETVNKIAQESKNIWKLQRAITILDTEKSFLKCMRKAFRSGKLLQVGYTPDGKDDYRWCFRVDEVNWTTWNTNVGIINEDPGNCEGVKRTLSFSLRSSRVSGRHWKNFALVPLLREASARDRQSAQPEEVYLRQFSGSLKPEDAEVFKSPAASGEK
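Fluo-8 calcium influx in TRPV1-expressing cells, kinetic read (ex 480/em 520 nm). Compound added and read 3 min for agonist activity, followed by capsaicin at EC20 final and 2 min further read for enhancement.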
CtBP-E1A inh: CtBP/E1A binding inhibition; AlphaScreen GST-E1A/His-CtBP binding, 1536-well; active compounds read low; control for the full effect not named in the record; activity change, % (concentration not given with the values); 0.49% of 340,000 active; in the data active means activity change below about -65%; inconclusive means about -30% to -65%; inactive means above about -30%; also: % is scaled to controls: 0 for no effect and ±100 for the full control effect
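AlphaScreen with 125 nM GST-E1A and 125 nM His-CtBP (5X stocks) in Tris pH 8.0, 300 mM NaCl, BSA, Tween 20, TCEP. Compounds preincubated 2 h at 37 deg C, then glutathione donor/nickel acceptor beads added for 1 h at 37 deg C in dark.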
The depositor's hits bear a star; ? = inconclusive; · = no result given; & = joins results of further samples; [ ] = dose if it differs, or a comment.

Screens in order – gsp antagonist, gsp agonist, Menin-MLL FL inh, ClpP mod, Sfp inh, TRPV1 potentiator, CtBP-E1A inh
- Cc1ccc2nc(N3CCC(C(=O)O)CC3)nc(-c3ccccc3)c2c1
    ?, 16%, 4.0, -9.9%, 3%, -5, 11
- NC(=O)c1oc2ccccc2c1NC(=O)c1ccccc1
    ?, ?, 3.0, -5.4%, 8%, ?, -18
- COc1ccc(C)cc1NC(=O)c1cc(S(=O)(=O)N2CCCC2)cn1C
    -10%, 12%, -3.0, -1.1%, -1%, 18, 4
- CC1CCCCN1C(=O)CSc1nnc2c(n1)[nH]c1ccc(F)cc12 (configuration not stated)
    -3%, -18%, -1.3, ·, 4%, 0, 4
- COc1ccc(/C=C(\NC(=O)c2ccc(Cl)cc2)C(=O)NCCCn2ccnc2)cc1OC
    3%, -35%[inhibitor], ·, ·, 7%, 13, -8
- Cc1nn(CC(C)C(=O)N2CCN(S(=O)(=O)c3ccc(Cl)cc3)CC2)c(C)c1C (configuration not stated)
    -37%, 13%[15.4 µM], 2.1, ·, 12%, -15, 1
- Cc1ccccc1N1CC(C(=O)N2CC(C)OC(C)C2)CC1=O (configuration not stated)
    1%, 1%, 2.7, ·, 7%, -2, -2
- Cc1ccc(-n2nnnc2SCC(=O)N2c3ccccc3NC(=O)C2(C)C)cc1
    ?, -45%[inhibitor], 1.7, 0.4%, 1%, -5, 11
- CC(NC(=O)c1ccco1)C12CC3CC(CC(C3)C1)C2 (configuration not stated)
    11%, -29%, ·, 2.7%, ·, -14, 3
- Cc1nc2sc3c(c2c(=N)n1N)CC(C)(C)OC3
    -11%, ?, 0.9, -12%, -2%, 9, -5
- CCn1c(SC/C=C/c2ccccc2)nnc1-c1cnccn1
    -4%, 1%, 2.8, -5.6%, 2%, -1, 6
- COC(=O)C1=NN(c2ccccc2)C2C(=O)N(c3ccccc3OC)C(=O)C12 (configuration not stated)
    3%, -5%[15.4 µM], 0.7, -12%, 13%, -2, 8
- Cn1c(CN2CCOCC2)nc2cc(NC(=O)c3ccc(Cl)cc3)ccc21
    -12%, 2%, 2.3, 6.5%, 13%, 14, 1
- Cc1ccc(OCC(=O)N2CCN(S(=O)(=O)c3ccc(Cl)s3)CC2)cc1C
    -12%, -12%, ·, -0.9%, ·, -17, -4
- CCOc1ccc(/C=N/n2c(COc3ccccc3)n[nH]c2=S)cc1OC
    -9%, 3%, 1.3, 5.3%, 56µM*, ?, ·
- COc1cc(NC(=O)c2ccc3snnc3c2)cc(OC)c1
    -8%, -2%, 4.9, ·, 1%, -8, -4
- O=C(O)CC(NC(=O)c1ccco1)c1ccco1 (configuration not stated)
    12%, -3%, ·, 1.0%, 7%, 1, 9
- Cc1noc(C)c1N=Nc1ccccc1C(=O)O
    16%, -15%, 1.3, 0.4%, 3%, -3, -1
- O=C(NNc1nc2cc3c(cc2s1)OCO3)c1cccc(F)c1
    ?, -7%, -3.1, 1.0%, 28µM*, 19, -1
- Cc1cc(NC(=O)COc2ccc(C)c(C)c2)no1
    2%, -11%, 0.3, ·, 16%, 9, 1
- NC(=O)c1nn2c(C(F)(F)F)cc(-c3ccccc3)nc2c1Br
    -5%, 2%, -3.4, -1.3%, 5%, -7, ·
- Cc1cc(NC(=O)C2CC2)n(-c2nc3ccccc3s2)n1
    -10%, 10%[15.4 µM], 1.1, ·, 1%, -4, 0
- COc1ccc(CCN=C(N)NS(=O)(=O)c2cc(F)ccc2F)cc1
    -4%, 10%, -0.5, -0.2%, 8%, 20, 3
- Cc1ccc(NC(=S)N(N)CCO)cc1
    4%, -43%[inhibitor], -0.8, -0.1%, ?, 1, 5
- COc1ccc(N(C(=O)c2ccco2)C(C(=O)NC2CCCC2)c2ccco2)cc1OC (configuration not stated)
    8%, 2%, -1.3, ·, 11%, 26, -2
- COc1ccc(C)cc1NC(=O)C1CCN(S(=O)(=O)c2ccccc2)CC1
    ?, -42%[inhibitor], ·, 1.6%, 11%, -12, 1
- Cc1ccc(N(C(=O)c2snc(C(N)=O)c2N)C(C(=O)NC2CCCC2)c2ccncc2)cc1 (configuration not stated)
    -10%, -15%, -2.1, ·, 14%, 2, 0
- C=CCSC1=C(C#N)C(c2ccccc2OCC)CC(=O)N1 (configuration not stated)
    ?, -1%, 1.8, 1.1%, 71µM*, -62, -2
- CC(=O)Nc1sc(C)c(C)c1C(=O)OCC(=O)Nc1cc(S(C)(=O)=O)ccc1Cl
    -6%, -12%, ?, -16%, ?, ·, -17
- CC(NC(=O)c1cc2ccccc2o1)c1ccccc1 (configuration not stated)
    -3%, -23%, -5.0, -2.4%&-4.0%, -8%, -14, -1

An excerpt from above in order of their number in gsp antagonist, smallest number first:
SMILES,gsp antagonist
Cc1nc2sc3c(c2c(=N)n1N)CC(C)(C)OC3,-11%
COc1cc(NC(=O)c2ccc3snnc3c2)cc(OC)c1,-8%
COc1ccc(N(C(=O)c2ccco2)C(C(=O)NC2CCCC2)c2ccco2)cc1OC (configuration not stated),8%

(next part)
Screens in order – gsp antagonist, gsp agonist, Menin-MLL FL inh, ClpP mod, Sfp inh, TRPV1 potentiator, CtBP-E1A inh
- O=C(CN1c2ccccc2S(=O)(=O)c2ccccc21)NCc1ccccc1
    -4%, ?, 0.9, -9.3%, 13%, -1, -2
- O=C(NNC(=O)c1ccncc1)c1ccccc1
    1%, 2%, 3.0, -17%, -2%, 11, 9
- COc1ccc(O)c(C(=O)c2cnn(C(=O)c3cc(C)oc3C)c2)c1
    10%, -44%[inhibitor], 4.0, -24%, 15%, 5, -1
- O=c1[nH]c(/C=C\c2cccc(O)c2)nc(O)c1[N+](=O)[O-]
    -10%, -1%, 0.9, -0.5%, 10%, 11, -2
- COc1ccc(Br)c(C(=O)NC(C)(C)CO)c1
    11%, -13%[15.4 µM], -0.4, ·, 17%, 8, -16
- O=C(Nc1ccc2oc(-c3ccccc3)nc2c1)c1ccccc1F
    -17%, 1%, 1.6, -28%, 15%, 3, -3
- Cn1c(=O)oc2cc(S(=O)(=O)CCC(=O)NCCc3ccccc3)ccc21
    10%, 6%, ·, -1.4%&1.4%, 4%, -6, 11
- Cc1cc(C)n(-c2ccc(C(=O)NCCCN3CCOCC3)cc2)n1
    2%, 5%, 0.8, ·, 15%, 0, 14
- COc1ccc2c(c1)C1(Nc3ccccc3-c3nc4ccccc4n31)C(=O)N2 (configuration not stated)
    -2%, 11%, 1.0, 1.3%, 6%, 15, -2
- Cc1cccc(NC(=O)CN2C(=O)N/C(=C\c3cccn3-c3cccc(C(=O)O)c3)C2=O)c1
    -6%, -6%, 9.0, ·, 50µM*, -10, 3
- C=CC1=C(C(=O)O)N2C(=O)[C@@H](NC(=O)/C(=N\OCC(=O)O)c3csc(N)n3)[C@H]2SC1
    -1%, ·, ·, 0.3%, ·, ·, -6
- O=C(CCNS(=O)(=O)c1cccs1)NCc1cccs1
    4%, 6%, 2.1, 0.3%, 17%, 5, 3
- CCCCCCSc1ncc(C#N)c(N)n1
    11%, 9%, -0.7, -18%, -2%, -4, -1
- Cc1cccc(C(=O)NNC(=O)C2CC2)c1
    13%, ?, ·, 0.2%, 14%, 26, 10
- NC(=O)[C@@H]1CCCCNc2c(I)cc([N+](=O)[O-])cc2C(=O)N[C@@H](CCC(=O)O)C(=O)N[C@@H](CO)C(=O)N1
    9%, ·, 3.7, 1.0%, 6%, 15, 0
- COc1ccc2cc(CN(CC3CCCO3)C(=S)NCc3ccco3)c(=O)[nH]c2c1 (configuration not stated)
    -21%, -9%[15.4 µM], -0.5, ·, -26%, 18, 4
- Cn1cc(C2N3CC4(C)CN2CC(C)(C3)C4=O)c2ccccc21 (configuration not stated)
    -10%, 19%, -0.6, 1.9%, 3%, -1, 1
- N#CCC(=O)Nc1ccc(C(=O)NCc2cccc(Cl)c2)cc1
    -3%, 3%, 9.4, -3.4%, 12%, -3, -10
- CNC(=O)c1ccc(CN(C)C(=O)/C=C/c2ccc(S(=O)(=O)N3CCCCCC3)cc2)cc1
    ·, 7%, ·, -3.7%, ·, ·, -4
- Cc1cccc2cc(-c3nc4ccc(C(=O)O)cc4[nH]3)c(=O)oc12
    ?, ?, -8.2, ·, 15%, 4, -6
- COc1ccc(/C=N\Nc2ccc([N+](=O)[O-])cc2[N+](=O)[O-])c(C(=O)O)c1OC
    1%, -5%, 2.4, 3.7%, 79µM*, -1, ·
- COc1cccc(CN2CC(C(=O)N(C)CC3CCOCC3)CCC2=O)c1 (configuration not stated)
    8%, -22%, ·, -0.5%, 14%, -11, -2
- O=C(NCc1ccco1)c1ccc(Cl)c(S(=O)(=O)Nc2ccccc2)c1
    -3%, 0%[15.4 µM], -9.7, ·, 8%, 16, -5
- COc1cc2c(cc1OC)C(c1cc(OC)c(OC)c(OC)c1)C1(O)C(=O)OCC1(O)C2 (configuration not stated)
    6%, -28%, ·, ·, ·, ·, 2
- O=C(c1ccc(F)cc1Cl)N1CCN(S(=O)(=O)c2cccs2)CC1
    -11%, -12%[15.4 µM], -0.1, -0.9%, 4%, -1, -14
- COc1ccc(C(CNC(=O)COc2c(C)cc(C)cc2C)N2CCOCC2)cc1 (configuration not stated)
    -2%, -16%, ·, 0.6%, ·, -5, ·
- Cn1nc(NC(=O)C2CCC2C(=O)O)c2c(F)cccc21 (configuration not stated)
    9%, 12%, 2.2, -2.7%, 9%, 29, ·
- COc1ccccc1-c1n[nH]nc1C1=CC(=O)CC(C)(C)C1
    ·, -31%, ·, 0.4%, ·, ·, 3
- Oc1c(Br)cccc1/C=N/c1ncn[nH]1
    3%, -48%[inhibitor], 3.8, -1.0%, 0%, 13, 1
